Sa RN4220 lethal = S. aureus RN4220 growth inhibition; hit rate 0.33% among 330,000; inhibition, % (test concentration not listed); OD600, 16 h;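 active = z-score of -3 or lower and OD600 up to 0.18 on both plates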;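 also: plate controls were untreated cells for no effect and reference antibiotic for full effect; stock transfer was 100 nL into about 80 µL; one replicate is shown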
Mtb hypoxia inh = Mtb hypoxia fluorescent reporter inhibition. hit rate 0.1% among 300,000. AID 1159583. M. tuberculosis hypoxia-regulated fluorescent reporter, fluorescence. fluorescence inhibition, % (test concentration not listed);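 active = 35 to 45% if threefold the growth effect, above 45% if 1.5-fold the growth effect; inactive = the rest, general growth blockers included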;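 also: wells of about 50 µL received 100 nL stock; 0% = vehicle wells and 100% = reference inhibitor wells; whole bacteria with a GFP reporter of the hypoxia response; strong numbers were not always called active; many hits fall short of the cut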
Bead autofluor = counter-screen for toxin protease inhibitors: compound fluorescence | compound autofluorescence counterscreen, microsphere flow cytometry; active compounds read high | fluorescence intensity (test concentration not listed) | hit rate 3.1% among 360,000 | AID 624483;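 active = at least 3 SD above the mean of all compounds, about 16000 in these data; inconclusive = too few beads counted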;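 also: 100 nL of 1 mM stock went into each well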
ugtP null kill = compounds lethal to S. aureus RN4220 ugtP deletion mutant. growth inhibition, % (no concentration beside the values). OD600 growth, 16 h; some inactives read as strong as hits. hit rate 0.54% among 330,000;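 active = z-score under -3 and OD600 up to 0.15 on both plates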;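 also: plate controls were untreated wells for no effect and antibiotic for full effect; wells of about 80 µL received 100 nL stock; the first replicate is given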
BJeLR viability = kills HRASV12-expressing BJeLR cells; hit rate 0.17% among 300,000; inhibition, % (no concentration beside the values); BJeLR (HRASV12) viability, CellTiter-Glo ATP luminescence, 48 h; reference of the scale not given here; AID 1554;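 active = replicate mean above 50%; inconclusive = above 50% but judged a plate artefact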;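 also: 50 nL library stock added to about 25 µL; numbers are from one replicate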
PrP 5UTR inh = suppresses PrP 5' UTR mRNA reporter expression; cell-based PrP 5' UTR mRNA reporter, plate reader; inhibition, % (no concentration beside the values); hit rate 0.35% among 340,000;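 active = every replicate at 50% or more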;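 also: 0 = median of the neutral control wells; tested in H4 reporter cells; numbers are from one replicate; inactives centre near -14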
Mtb hypoxia inh growth = recorded beside Mtb hypoxia inh, whose call it bears; growth inhibition, %; measured here: M. tuberculosis growth (absorbance);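 0% = vehicle and 100% = reference antibiotic; read after six days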
Active calls of the source: *; ? = inconclusive; · = no result given; & = joins results of further samples. Random draw from the library; any-hit rate near 4%.

Molecule | Sa RN4220 lethal | Mtb hypoxia inh | Mtb hypoxia inh growth | Bead autofluor | ugtP null kill | BJeLR viability | PrP 5UTR inh
CC(C)c1nnc(SCC(=O)NC2CCCCC2)n1C | 5.1 | 9 | 6 | 5465 | 4 | 2 | -20
Cn1cnc([N+](=O)[O-])c1Oc1ccc2ccccc2c1 | 9.3 | -1 | 2 | 2152 | 0 | -16 | 5
CCCn1c(SCC(N)=O)nc2c(c1=O)C1(CCCC1)Cc1ccccc1-2 | 5.1 | 4 | 7 | 2762 | 43 | -3 | 14
C[C@@H]1C[C@@H]2O[C@H]2/C=C\C=C\C(=O)Cc2c(Cl)c(O)cc(O)c2C(=O)O1 | · | · | · | 5477 | · | 36 | 17
O=c1c(-c2ccccc2Cl)c[nH]n1-c1ccccc1 | 13 | 5 | -10 | 2862 | 11 | 6 | -17
Cc1csc(NC(=O)c2cc([N+](=O)[O-])cc([N+](=O)[O-])c2)n1 | 16 | 3 | 23 | 2080 | -6 | 6 | -26
COC(=O)N/N=C(\C)c1cccs1 | · | · | · | 6095 | · | -7 | -7
Cc1ccc(NC2=C(Cl)C(=O)OC2NC(=O)c2ccccc2)cc1 (centres undefined) | 0.7 | 10 | 12 | 8191 | 6 | 0 | -19
CS(=O)(=O)Nc1ccc(C(=O)N2CC(=O)Nc3ccccc32)cc1 | 2.4 | 11 | 1 | 3681 | 23 | -2 | -41
CSCCC(NC(=O)COc1ccccc1)C(=O)N(C)Cc1ccc(SC)cc1 (centres undefined) | 2.7 | 6 | 4 | 9140 | 10 | · | -14
CN1CC(C(=O)Nc2ccc(F)c(Cl)c2)CC1=O (centres undefined) | 1.3 | 5 | -2 | 3883 | 4 | 1 | -20
CN(C)C=Nc1sc2c(c1C#N)CCCC2 | 0.0 | 6 | 0 | · | -3 | · | ·
CCC(=O)O[C@@H]1[C@@H](OC(C)=O)[C@@]2(O)C(C[C@H](O)C2(C)C)[C@](C)(O)[C@H]2CC[C@@H]3[C@@H](O)[C@]12C[C@@]3(C)O (some centres undefined) | · | · | · | 3970 | · | -5 | -7
COc1ccc(-n2c(=S)[nH]c(=O)c3cccnc32)cc1 | 2.8 | 14 | 7 | 5320 | 2 | -5 | -12
Cc1ccc2nc(SCC(=O)NCCc3ccccc3)nc(=O)n2c1 | 3.2 | 4 | 2 | ? | 10 | 15 | -3
COc1cccc(-c2c(C(=O)NN=C(C)COc3ccccc3)nnn2-c2nonc2N)c1 | 3.9 | -2 | -10 | · | 10 | · | ·
C=CCN1C(=O)C(C)SC1=NS(=O)(=O)c1ccc(Cl)cc1 (centres undefined) | 82 | 6 | 3 | · | 86 | · | ·
O=C(O)c1ccc(-n2nc(C(F)(F)F)c3c2CCCC3)cc1 | 7.9&4.6 | 11&2 | 7&-4 | 4919&6367 | 4&25 | 0&-15 | -16&-17
Fc1ccccc1-c1nc(-c2ccc(Cl)cc2)no1 | -2.1 | 3 | 10 | 4215 | -3 | 5 | -130
COc1ccc(OCC(=O)Nn2c(-c3ccc(C)cc3)nc3ccccc3c2=O)cc1 | 4.0 | 16 | 7 | 2045 | 16 | -15 | -24
CCNc1nc(NCC)n2c(SCC(=O)Nc3ccc(C)cc3Br)nnc2n1 | 6.6 | 2 | 2 | 3498 | 5 | · | -14
Nc1nonc1-n1nnc(C(=O)N/N=C/c2ccc(OCc3cccc(Cl)c3)cc2)c1CN1CCCCC1 | · | · | · | 5759 | · | -3 | -51
Cc1ccc(S(=O)(=O)N(C)CC(=O)NC2CC(C)(C)NC(C)(C)C2)cc1 | 4.0 | 7 | 8 | 3146 | 0 | 2 | -8
CCNc1ccc(S(=O)(=O)N(C)C)cc1NCC(=O)Nc1ccc(Br)cc1F | 2.9 | -2 | 12 | 9505 | -2 | 5 | -5

Just Bead autofluor, Mtb hypoxia inh growth and Mtb hypoxia inh (7 entries from above):
compound	Bead autofluor	Mtb hypoxia inh growth	Mtb hypoxia inh
CCC(=O)O[C@@H]1[C@@H](OC(C)=O)[C@@]2(O)C(C[C@H](O)C2(C)C)[C@](C)(O)[C@H]2CC[C@@H]3[C@@H](O)[C@]12C[C@@]3(C)O (some centres undefined)	3970	·	·
COc1ccc(-n2c(=S)[nH]c(=O)c3cccnc32)cc1	5320	7	14
Cc1ccc2nc(SCC(=O)NCCc3ccccc3)nc(=O)n2c1	?	2	4
COc1cccc(-c2c(C(=O)NN=C(C)COc3ccccc3)nnn2-c2nonc2N)c1	·	-10	-2
C=CCN1C(=O)C(C)SC1=NS(=O)(=O)c1ccc(Cl)cc1 (centres undefined)	·	3	6
O=C(O)c1ccc(-n2nc(C(F)(F)F)c3c2CCCC3)cc1	4919&6367	7&-4	11&2
Fc1ccccc1-c1nc(-c2ccc(Cl)cc2)no1	4215	10	3

(listing goes on)
Molecule | Sa RN4220 lethal | Mtb hypoxia inh | Mtb hypoxia inh growth | Bead autofluor | ugtP null kill | BJeLR viability | PrP 5UTR inh
O=C1CN(S(=O)(=O)c2ccc(Cl)cc2)c2ccccc2N1 | 1.7 | 0 | -11 | 3302 | 7 | 2 | -61
CCOC(=O)CNC(=O)N1CCCC(C(=O)c2ccc3c(c2)OCO3)C1 (centres undefined) | 4.3 | -8 | -4 | 2192 | 3 | -1 | 0
CC(O)CNc1ncnc2cc(-c3ccc(F)cc3)sc12 (centres undefined) | 3.8 | 7 | 5 | 3246 | 4 | -2 | -24
Cc1ccc(C(=O)NN=Cc2ccc([N+](=O)[O-])o2)cn1 | 56 | 9 | 17 | · | 69 | · | ·
C=COCCNC(=S)N1CCOCCOCCN(C(=S)NCCOC=C)CCOCC1 | 3.4 | 6 | 3 | 3186 | 1 | -5 | -7
O=c1c2ccccc2oc2nc(-c3ccco3)n(-c3ccccc3)c(=O)c12 | 16 | 6 | 9 | 1938 | -3 | 14 | -28
C/C(Cc1ccccc1)=N\NC(=O)CNC(=O)c1cccc(Cl)c1 | · | · | · | 3200 | · | -1 | -31
O=C(NCC1CCN(C(=O)c2cccc([N+](=O)[O-])c2)CC1)c1cccc([N+](=O)[O-])c1 | 2.2 | 3 | 12 | 3615 | 7 | -1 | -10
CCN1C(=O)c2ccccc2S(=O)(=O)c2ccc(C(=O)NCCOC)cc21 | -2.6 | 5 | 6 | 2966 | 17 | 2 | -14
CC(=O)C(=NNc1ccccc1[N+](=O)[O-])N1CCCc2ccccc21 | -1.7 | 9 | -2 | · | 14 | · | ·
Cc1ccc2nc(SCC(=O)NCc3ccc(F)cc3)[nH]c2c1 | 0.0 | -18 | 10 | 3740 | -4 | 6 | -74
CCC(CC)NC(=O)COC(=O)c1ccc(NS(=O)(=O)c2ccc3c(c2)OCCO3)cc1 | · | · | · | 23057* | · | -1 | 2
CCCC(C)C(=O)Nc1ccc2c(c1)OCCO2 (centres undefined) | 1.6 | · | · | 4900 | 3 | 4 | 14
O=C(C=Cc1cccc([N+](=O)[O-])c1)c1ccc([N+](=O)[O-])o1 | 100* | · | · | · | 100* | · | ·
CCc1cc(=O)oc2cc(C)cc(OCC(=O)NCCN3CCOCC3)c12 | 1.9 | 10 | 4 | 4157 | 6 | -5 | -4
O=C(OCc1cccc([N+](=O)[O-])c1)c1ccc2ccccc2n1 | 0.8 | 17 | 3 | 4181 | 3 | -19 | -17
Cc1c(OCc2ccc(C(=O)O)o2)ccc2c3c(c(=O)oc12)CCC3 | 9.7 | 5 | 2 | 5874 | 8 | 1 | -17
CC1(C)CC(=O)c2c(O)cc(OCc3ccc([N+](=O)[O-])cc3)cc2O1 | -2.1 | -4 | 0 | 24979* | 1 | 1 | -110
CCN(CC)S(=O)(=O)c1ccc(NC(=O)CC(NC(C)=O)c2ccccc2)cc1 (centres undefined) | 2.4 | · | · | 3170 | 4 | -3 | -11
O=C(NCc1cccnc1)c1cc(Sc2cccc(Cl)c2)nc2ccccc12 | 8.8 | -8 | -1 | 9263 | 9 | 17 | -33
O=C(c1ccccc1NS(=O)(=O)c1cccs1)N1CCOCC1 | 3.9 | 5 | 3 | 9130 | 3 | -5 | -15
CC(=O)c1cccc(-n2nnnc2SCC(=O)N2CCCC2)c1 | 2.4 | 6 | 10 | 3183 | -1 | -6 | -14
O=C1CN(C(=O)c2ccc(F)c(S(=O)(=O)N3CCOCC3)c2)c2ccccc2N1 | -3.6 | 13 | 1 | 5295 | 8 | -3 | 59*
COc1cc(C(N)=O)cc(Br)c1OCc1ccccc1 | -4.5 | 3 | -15 | 2116 | 9 | 3 | 6

Single records, from the list above. Values in the order: Sa RN4220 lethal | Mtb hypoxia inh | Mtb hypoxia inh growth | Bead autofluor | ugtP null kill | BJeLR viability | PrP 5UTR inh
COc1cc(C(N)=O)cc(Br)c1OCc1ccccc1 in the list: -4.5 | 3 | -15 | 2116 | 9 | 3 | 6
Cc1c(OCc2ccc(C(=O)O)o2)ccc2c3c(c(=O)oc12)CCC3 in the list: 9.7 | 5 | 2 | 5874 | 8 | 1 | -17
CC1(C)CC(=O)c2c(O)cc(OCc3ccc([N+](=O)[O-])cc3)cc2O1 in the list: -2.1 | -4 | 0 | 24979* | 1 | 1 | -110
O=C(NCc1cccnc1)c1cc(Sc2cccc(Cl)c2)nc2ccccc12 in the list: 8.8 | -8 | -1 | 9263 | 9 | 17 | -33

(further entries)
Molecule | Sa RN4220 lethal | Mtb hypoxia inh | Mtb hypoxia inh growth | Bead autofluor | ugtP null kill | BJeLR viability | PrP 5UTR inh
c1ccc(Cn2ncc3c(Nc4ccccc4)ncnc32)cc1 | 2.9 | -2 | 0 | 4503 | 1 | 0 | -17
COc1ccc(/C=C/C(=O)N2CCN(S(=O)(=O)c3ccccc3)CC2)cc1OC | 1.1 | 8 | 8 | 4955 | 5 | 2 | -97
Cn1c(C(=O)N[C@@H](Cc2ccccc2)C(=O)O)cc2cc(F)ccc21 | 1.4 | -6 | 14 | 3377 | -4 | -19 | ·
COC(=O)c1[nH]c(C)c(/C(O)=C2\C(=O)C(=O)N(CCN3CCOCC3)C2c2ccco2)c1C (centres undefined) | 2.7 | 6 | 22 | 4394 | 0 | 4 | -13
CC1C(=O)OC2CC34C5CC(C(C)(C)C)[C@]36C(OC(=O)C6O)O[C@@]4(C(=O)O5)[C@]21O (some centres undefined) | 4.3 | 0 | -3 | · | -4 | · | ·
CCOc1ccc(CNC(=O)CCc2cn(C)c3ccccc23)cc1OC | 1.8 | 9 | 12 | 4327 | 17 | 2 | -15
Cn1c(NCCCN2CCOCC2)nc2c1c(=O)n(Cc1ccc(Cl)cc1)c(=O)n2C | -0.1 | 11 | 10 | 10038 | 3 | 4 | -13
CN(C)S(=O)(=O)c1ccc(Cl)c(NC(=O)CSc2nc3ccccc3c(=O)n2CCCN2CCOCC2)c1 | 5.6 | 4 | 2 | 2296 | 3 | 3 | -1
CC(C)(C)C(=O)Nc1ccc(-c2cc3cc(Cl)ccc3o2)cc1 | 6.9 | 3 | 4 | 6212 | 7 | -2 | -10
COC1=CC(=O)C(OC)=C(OC)C1=O | 5.8 | 3 | 7 | ? | 19 | · | -12
COc1ccc(CCNC(=O)C2CCN(C(=O)c3ccc(Br)cc3)CC2)cc1 | -0.2 | 6 | 5 | 3554 | 6 | 4 | -13
COc1ccc(-n2ccnc2SCC(=O)NCc2ccccc2)c(OC)c1 | 11 | 2 | -4 | 4568 | 7 | -2 | -11
CS(=O)(=O)c1ccc2nc(NC3(C(F)(F)F)N=C4SCCN4C3=O)sc2c1 (centres undefined) | 15 | 5 | 17 | 9606 | -5 | 0 | -39
O=C1OC(N2C(=O)CC[C@H]2C(=O)Nc2cccc(F)c2)c2ccccc21 (some centres undefined) | 0.9 | · | · | 5949 | -10 | -1 | -14
COc1ccc(C(=O)N2CCN(S(=O)(=O)c3ccc(C)cc3C)CC2)cc1OC | -9.6 | -2 | 8 | 5986 | -5 | -4 | -70
CS(=O)(=O)N(CC(=O)Nc1ccc2c(c1)OCO2)c1ccc2c(c1)OCO2 | -2.9 | 6 | 8 | 10722 | -2 | -4 | -31
Cc1cc(C)nc(NN=C/C=C/c2ccccc2)n1 | 2.0 | 14 | 9 | · | 13 | · | ·
N[C@@H](CCl)C(=O)O | · | · | · | 5440 | · | -19 | -6
COc1ccc(/C=N/NC(=S)NCc2ccccc2)cc1OC | · | · | · | 2052 | · | -5 | 2
COCCCNc1c2c3c(cccc3[nH]c1=O)C(=O)c1ccccc1-2 | 7.5 | -40 | -2 | 5312 | 11 | · | 3
